Screening results deposited in PubChem by Vanderbilt University.
GIRK2 activ = opens human GIRK2 potassium channels | AID 1259325 | P48051 | 63,000 compounds, 0.05% hits | calls only for hits at 25 µM | HEK293-GIRK2 thallium flux, Thallos fluorescence;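 active means among the strongest 0.2% of first-round signals and kept after retests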;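 further: first round at about 10 µM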
Target sequence (P48051 whole entry, looked up): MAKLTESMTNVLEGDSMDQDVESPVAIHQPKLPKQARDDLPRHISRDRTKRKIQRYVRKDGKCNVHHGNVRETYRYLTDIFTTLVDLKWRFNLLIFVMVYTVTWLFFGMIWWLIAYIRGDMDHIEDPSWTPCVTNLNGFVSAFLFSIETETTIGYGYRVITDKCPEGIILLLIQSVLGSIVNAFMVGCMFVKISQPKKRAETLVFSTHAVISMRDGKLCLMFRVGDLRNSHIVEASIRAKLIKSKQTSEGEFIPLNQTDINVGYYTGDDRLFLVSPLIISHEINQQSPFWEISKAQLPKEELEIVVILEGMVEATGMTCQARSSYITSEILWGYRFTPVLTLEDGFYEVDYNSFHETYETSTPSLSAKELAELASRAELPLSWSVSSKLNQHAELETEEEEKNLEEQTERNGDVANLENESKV
Calls only; i = inactive. Not all compounds are listed; count on the stated rates, not on these rows.

SMILES	GIRK2 activ
COc1ccc(Cl)cc1NC(=O)CSc1cc(C(C)C)ncn1	i
COc1ccc(NC(=O)Nc2ccc3nc(C)n(-c4ccccc4)c(=O)c3c2)cc1OC	i
Cc1cc(NC(=O)CN2CCN(Cc3nc4ccccc4n3C)CC2)no1	i
Cc1csc(COc2ccc(C(=O)Nc3nc(C)cs3)cc2)n1	i
N#Cc1cccc(C(=O)NC2CCCC(OC(=O)Nc3ccccc3)C2)c1 (stereo not given)	i
O=C(CCC1NC(=O)c2ccccc2NC1=O)Nc1cccnc1 (stereo not given)	i
O=C(NCC(O)(c1ccccc1)C1CC1)C(=O)Nc1ccc(F)c(Cl)c1 (stereo not given)	i
Cc1cccc(OCCn2c(C3CC(=O)N(C(C)(C)C)C3)nc3ccccc32)c1 (stereo not given)	i
O=c1c(O)c(-c2ccc(O)c(O)c2)oc2cc(O)cc(O)c12	i
O=C(NCCc1nc(C2CC2)cc(C(F)(F)F)n1)c1cccs1	i
Cc1ccc(-c2ccc3nn(Cc4ccc5c(c4)OCO5)c(=O)n3n2)cc1C	i
O=S(=O)(NCc1ccsc1)c1ccc(N2CCCCS2(=O)=O)cc1	i
COc1nn(C)cc1C(=O)N1CCN(C(=O)C2CC2c2cccs2)CC1 (stereo not given)	i
Cc1cccc(NC(=O)Cn2c(C)cc(C)c(-c3nc(-c4cccc(Cl)c4)no3)c2=O)c1C	i
COC(=O)c1ccc(CN2N=C(C(=O)N3CCCCC3)S(=O)(=O)c3ccccc32)o1	i
Cc1nc(NC(=O)c2coc(NC(=O)c3ccccc3)n2)sc1C	i
COC1(CNC(=O)c2snnc2C)CCSC1 (stereo not given)	i
Cc1cc(OCC(=O)Nc2ccc(C#N)cc2)nc(-c2ccc(F)cc2)n1	i
O=C(Nc1nc(-c2cc(Cl)sc2Cl)cs1)Nc1c(F)cccc1F	i
CCN(CC)C(=O)Oc1ccc2c(c1C)O/C(=C\c1ccc(OC)cc1)C2=O	i
Cn1cc(-c2ccco2)nc1CCNS(=O)(=O)C1CC1	i
COc1ccc(-n2nnc(C(=O)Nc3ccc(Br)cc3C)n2)cc1	i
CCOC(=O)N1CCN(C2CC(=O)N(c3ccc(NC(C)=O)cc3)C2=O)CC1 (stereo not given)	i
COc1ccc2nc(-n3nc(C)cc3NC(=O)c3cccs3)sc2c1	i
O=C(Cn1nc(S(=O)(=O)c2cccc(F)c2)ccc1=O)N1CCc2ccccc2C1	i
Cc1cc(O)c(C2OC(=O)c3ccccc32)c(=O)[nH]1 (stereo not given)	i
Cn1c(=O)c2c(nc(Br)n2Cc2ccc(Br)cc2)n(C)c1=O	i
O=C(CCc1ccccc1)NCCCN1CCN(c2ccccc2)CC1	i
Cc1[nH]c2ccccc2c1C(=O)C(=O)N1CCN(Cc2nnnn2-c2ccc(F)cc2)CC1	i
NC(=O)c1ccccc1OCC#CCNC(=O)c1c(F)cccc1F	i
O=S(=O)(NCCNc1cc(Nc2ccccn2)ncn1)c1ccc2cccc3c2c1CC3	i
Cc1oc(-c2ccccc2)nc1Cn1nnc(C(=O)Nc2cc(F)ccc2F)c1C	i
O=C(Nc1cccc2cnccc12)c1cccc(S(=O)(=O)N2CCCC2)c1	i
Cc1cc(C)n(-c2nc3c(c(=O)n(CC(N)=O)c(=O)n3C)n2Cc2ccccc2)n1	i
Cc1cc(OCC(=O)Nc2cc(F)ccc2C)nc(N2CCC(C)CC2)n1	i
O=C(N1CCC(Oc2ncccc2Br)CC1)C12CC3CC(CC(C3)C1)C2	i
Cc1c(-c2nc(-c3ccccc3F)no2)nnn1-c1ccccc1Br	i
O=C(NCCc1ccccc1)N1CCC(Oc2ccc(C(F)(F)F)cn2)CC1	i
COc1ccc(-c2coc3c(C)c(O)ccc3c2=O)cc1	i
CS(=O)(=O)c1cccc2sc(N3CCN(C(=O)c4cccc(Oc5ccccc5)c4)CC3)nc12	i
CCc1nccn1CC1CCN(C(=O)c2cnccn2)CC1	i
COc1ccc(C=O)cc1Cn1c(=O)n(-c2ccc(CC(=O)NCC(C)C)cc2)c(=O)c2ccccc21	i
CCC(C)NC(=O)CCCn1nc(-c2cccc(OC)c2)ccc1=O (stereo not given)	i
CC1CCN(S(=O)(=O)c2cccc3cccnc23)CC1	i
COc1ccccc1NC(=O)c1ccc(S(=O)(=O)NCc2cccnc2)o1	i
COc1ccc(Cl)cc1C(=O)N1CCC(Cn2ccnc2-c2ccccc2)CC1	i
N#Cc1nc(-c2ccc(S(=O)(=O)N3CCOCC3)cc2)oc1NC1CCCCC1	i
O=C(Nc1ccc(OC(F)(F)F)cc1)N1CCN(c2ccc(-c3ccco3)nn2)CC1	i
CCCCCCCCCCCCCCCCCCOCC(COP(=O)([O-])OCC[N+](C)(C)C)OC (stereo not given)	i
O=C(Nc1nccs1)C1CCN(C(=O)c2ccc3nc[nH]c3c2)CC1	i
COc1nn(C)cc1C(=O)NCC1(c2cccs2)CC1	i
COc1cccc(-c2[nH]ncc2-c2nc(-c3ccc(Cl)cc3)no2)c1	i
Cn1c(=O)c2ccc(C(=O)NC3CCCCC3)cc2n2c(=O)n(Cc3cccc(C(F)(F)F)c3)nc12	i
O=C(NCc1cccnc1)C(=O)Nc1ccc(Cl)cn1	i
C=CCNc1nc2c(c(=O)[nH]c(=O)n2C)n1CC(=O)OC	i
O=C(NCc1ccc(F)cc1)c1ccc2nc[nH]c2c1	i
COc1ccc(NC(=O)Cn2nc3c(SC4CCCCC4)nccn3c2=O)cc1Cl	i
COc1cc2c(c3oc(-c4ccccc4)cc(=O)c13)C=CC(C)(C)O2	i
CS(=O)(=O)N1CCN=C1SCc1cccc(C(F)(F)F)c1	i
COc1cccc(-c2nc(Cn3ccn4nc(-c5ccc(C)cc5)cc4c3=O)c(C)o2)c1OC	i

Gathered by group: those above with a Cl atom.
SMILES	GIRK2 activ
COc1ccc(Cl)cc1NC(=O)CSc1cc(C(C)C)ncn1	i
O=C(NCC(O)(c1ccccc1)C1CC1)C(=O)Nc1ccc(F)c(Cl)c1 (stereo not given)	i
Cc1cccc(NC(=O)Cn2c(C)cc(C)c(-c3nc(-c4cccc(Cl)c4)no3)c2=O)c1C	i
O=C(Nc1nc(-c2cc(Cl)sc2Cl)cs1)Nc1c(F)cccc1F	i
COc1ccc(Cl)cc1C(=O)N1CCC(Cn2ccnc2-c2ccccc2)CC1	i
COc1cccc(-c2[nH]ncc2-c2nc(-c3ccc(Cl)cc3)no2)c1	i
O=C(NCc1cccnc1)C(=O)Nc1ccc(Cl)cn1	i
COc1ccc(NC(=O)Cn2nc3c(SC4CCCCC4)nccn3c2=O)cc1Cl	i

Remaining list, next part.
SMILES	GIRK2 activ
Cc1csc(SCC2CCN(S(=O)(=O)C3CC3)CC2)n1	i
Cc1cccc(C)c1NC(=O)c1ccc(-c2ccc(Cl)c(Cl)c2)o1	i
O=C(NCC(F)(F)F)C(=O)NCC1(c2ccc(F)cc2)CC1	i
COc1ccc(-c2cc3c(=O)n(CC(=O)Nc4ccc5c(c4)OCCO5)ccn3n2)cc1OC	i
Cc1oc(-c2ccccc2)nc1CSc1ccc(-c2ccccc2Cl)nn1	i
CC(C)CNC(=O)c1ccc2c(=O)nc3c(-c4cccc(C(F)(F)F)c4)n[nH]n3c2c1	i
COc1ccc(C2CCCN2CCNC(=O)c2ccno2)cc1 (stereo not given)	i
COC(=O)c1ccc(C2c3c(oc4ccccc4c3=O)C(=O)N2CCO)cc1 (stereo not given)	i
Cc1ccc(S(=O)(=O)c2ccc(N3CCC(C(=O)OCc4ccccc4)CC3)nn2)cc1	i
COC(=O)N1CCC(CNC(=O)Nc2ccccc2Cl)CC1	i
COc1ccc(CCNC(=O)c2coc(NC(=O)c3cnccn3)n2)cc1OC	i
COc1ccc(-c2nc(CCNC(=O)c3ccc(-n4nc(C)cc4C)nn3)cs2)cc1	i
COCCCn1c(C(=O)N2CCC(C(N)=O)CC2)cc2c(=O)n3cccc(C)c3nc21	i
CC(C)(Oc1ccc(Cl)cc1)C(=O)NCC(O)c1ccoc1 (stereo not given)	i
O=c1c2cn[nH]c2nc(SCc2nc(-c3ccc(F)c(Br)c3)no2)n1-c1ccccc1	i
O=C(C1=NN(Cc2nc(C3CC3)no2)c2ccccc2S1(=O)=O)N1CCCCC1	i
O=C(CSc1nccc(-c2ccc3c(c2)OCO3)n1)N1CCOCC1	i
COc1cccc(NC(=O)NCCc2cc(C)no2)c1OC	i
O=C(Cn1c(=O)oc2ccccc21)NCC1(c2cccs2)CC1	i
CCCOc1cc(C)c(S(=O)(=O)NC2CC(C)(C)NC(C)(C)C2)cc1C	i

Next section (4 carried over from the part before).
SMILES	GIRK2 activ
O=C(CSc1nccc(-c2ccc3c(c2)OCO3)n1)N1CCOCC1	i
COc1cccc(NC(=O)NCCc2cc(C)no2)c1OC	i
O=C(Cn1c(=O)oc2ccccc21)NCC1(c2cccs2)CC1	i
CCCOc1cc(C)c(S(=O)(=O)NC2CC(C)(C)NC(C)(C)C2)cc1C	i
Cc1cc2cc(CNC(=O)c3cnn4c3OCCC4)ccc2[nH]1	i
Cc1cc(NC(=O)CSc2nnc(C)c3cnn(-c4ccc(C)c(C)c4)c23)no1	i
CC(C)C(=O)Nc1ccc(S(=O)(=O)NCCCn2ncccc2=O)cc1	i
Cc1cc(C)n(-c2ccc(C(=O)Nc3nc(C)c(C)s3)nn2)n1	i
Cc1ccccc1-n1cnnc1CN1CCN(C(=O)c2ccc(C(C)(C)C)cc2)CC1	i
O=C(Cn1cccc(S(=O)(=O)N2CCCC2)c1=O)Nc1cccc(Br)c1	i
Cc1ccc(C)c2sc(N(CC3CCCO3)C(=O)CCS(=O)(=O)c3ccc(Cl)cc3)nc12 (stereo not given)	i
COc1cccc(COc2cn(C)c(C(=O)NCc3ccc4c(c3)OCO4)cc2=O)c1	i
CSc1ncc(Cl)c(C(=O)Nc2ccc3c(c2)OCO3)n1	i
Cc1ccccc1C(=O)NCCN1CCN(c2ccc(Cl)cc2)CC1	i
O=C(Nc1nc2c(s1)CN(S(=O)(=O)Cc1cccc(F)c1)CC2)C1CC1	i
Cn1nc(CNC(=O)c2ccc(F)cc2Cl)cc1-c1ccco1	i
C=CCn1c(=O)c2c(nc3n2CC(C)CN3c2ccc(Oc3ccccc3)cc2)n(C)c1=O (stereo not given)	i
CC(=O)Nc1ccc(S(=O)(=O)N2CCN(c3c(C)cc(C)cc3C)CC2)cc1	i
CC(C)(C)C(=O)N1CCN(c2nc(N3CCOCC3)nc(-n3ccnc3)n2)CC1	i
COc1ccc(C)cc1NC(=O)CN1CCC(c2nc(-c3cccc(C)c3)no2)CC1	i
O=C(Cn1c(C2CC(=O)N(CCc3ccccc3)C2)nc2ccccc21)N1CCCCC1 (stereo not given)	i
CSc1ccccc1NC(=O)C1OC2OC(C)(C)OC2C2OC(C)(C)OC12 (stereo not given)	i
O=C(Cn1nc2c(N3CCOCC3)nccn2c1=O)NCCc1ccc(Cl)cc1	i
Cc1ccc(/C=C/c2nc(C#N)c(N3CCN(C(=O)c4ccccc4C)CC3)o2)cc1	i
COc1ccc(-c2csc3c(=O)n(CC(=O)Nc4ccc(NC(C)=O)cc4)cnc23)cc1	i
COc1ccc(-c2cnc(CNC(=O)c3cccc4ccccc34)[nH]2)cc1	i
CC(C)(C)c1ccc(S(=O)(=O)NCc2ccc(C(=O)NCc3ccccn3)cc2)cc1	i
COc1cc(-c2noc(C3CC(=O)N(c4ccc5c(c4)OCCO5)C3)n2)cc(OC)c1OC (stereo not given)	i
CCOC(=O)c1c(NCc2cccc(OC)c2)c2cc(F)ccc2[nH]c1=O	i
O=C(Nc1ccc2c(c1)OCCO2)c1ccc(CNS(=O)(=O)c2cccc(C(F)(F)F)c2)cc1	i
CCOC(=O)c1sc2ccccc2c1S(=O)(=O)Nc1cc(C)ccc1OC	i
CC(C)NC(=O)CCc1csc(NC(=O)NC2CCCCC2)n1	i
O=C(COc1ccccc1F)NCc1ccc(C(=O)c2cccs2)s1	i
COc1ccc(S(=O)(=O)Nc2ccc3c(c2)CCCN3S(C)(=O)=O)cc1F	i
O=C(CCSc1ccccc1)NCC(O)c1ccc2c(c1)CCO2 (stereo not given)	i
O=C(O)C1CSC(=S)N1 (stereo not given)	i
COc1ccc(-c2cc3nc(C)cc(N4CCN(c5ccccn5)CC4)n3n2)cc1OC	i
O=C(Nc1nc2c(s1)CN(S(=O)(=O)c1cccs1)CC2)c1ccco1	i
COc1ccc(Cc2nnc(NC(=O)c3cnc4ccccc4n3)o2)cc1	i
Cc1cc(=O)n2c(CCNC(=O)c3cc(C4CC4)on3)csc2n1	i
COc1ccc(-c2cc3c4nn(CC(=O)NCc5ccccc5Cl)c(=O)n4ccn3n2)cc1	i
CC(C)c1ccc(OCC(=O)Nc2ccc(-n3nnc(C(=O)N4CCCC4)n3)cc2)cc1	i
COc1cccc(NC(=O)CSc2nc3ncccc3c(=O)n2CC2CCCO2)c1 (stereo not given)	i
Cc1cc(C)c(NC(=O)Cn2cnc3c(sc4ccccc43)c2=O)c(C)c1	i

Looked up by compound from above (4):
SMILES	GIRK2 activ
CCOC(=O)c1c(NCc2cccc(OC)c2)c2cc(F)ccc2[nH]c1=O	i
O=C(O)C1CSC(=S)N1 (stereo not given)	i
COc1ccc(Cc2nnc(NC(=O)c3cnc4ccccc4n3)o2)cc1	i
CC(C)NC(=O)CCc1csc(NC(=O)NC2CCCCC2)n1	i

(further entries)
SMILES	GIRK2 activ
O=C(c1cccs1)c1ccc(CNC(=O)c2c(F)cccc2Cl)s1	i
CCc1noc(-c2ccc(SCC(=O)N3CCc4ccccc4C3)nc2)n1	i
O=C(COc1ccccc1F)NCCOc1cccc2cccnc12	i
Cc1ccc(OCC(O)Cn2c(N3CCOCC3)nc3c2c(=O)[nH]c(=O)n3C)cc1C (stereo not given)	i
CCCNC(=O)C(=O)NCCC1CCCCN1S(=O)(=O)c1c(C)cc(C)cc1C (stereo not given)	i
O=C(CCC1=NNC2C3CC(c4ccc(F)cc4)NN3C=CN12)N1CCC(Cc2ccccc2)CC1 (stereo not given)	i
COC(=O)c1c(S(=O)(=O)N2CCN(c3ccc(F)cc3)CC2)n[nH]c1C	i
O=C(CN1CC(c2nc(Cc3ccccc3)no2)C1)N1CCc2ccccc21	i
O=C1Cc2cc(NC(=O)c3ccc(-n4cccc4)cc3)ccc2N1	i
Cc1ccc(-c2noc(-c3cccn(CC(=O)Nc4cccc(C)c4)c3=O)n2)cc1	i
